Assay outcomes (PubChem BioAssay)
CBX7 inh: inhibitors of human CBX7 binding to H3K27me3 peptide; O95931; AlphaScreen His6-CBX7 / biotin-H3K27me3 peptide binding; hits give low values; normalised signal (fraction of DMSO) (concentration not given with the values); 1.1% of 66,000 active; in the data active = normalised signal below about 0.5;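 also: 100 nL library stock added to about 20 µL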
Target sequence (O95931 whole entry, looked up): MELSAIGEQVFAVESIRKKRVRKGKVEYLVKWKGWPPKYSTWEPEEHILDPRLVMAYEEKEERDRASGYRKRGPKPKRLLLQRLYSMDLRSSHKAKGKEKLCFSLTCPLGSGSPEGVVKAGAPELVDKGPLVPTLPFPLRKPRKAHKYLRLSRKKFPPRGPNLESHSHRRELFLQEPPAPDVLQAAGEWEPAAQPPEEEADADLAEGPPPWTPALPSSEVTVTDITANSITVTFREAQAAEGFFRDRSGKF
CBX7 inh z-score: second read-out of CBX7 inh, no call of its own (marks repeat the call); z-score; measured here: z-score of CBX7 signal; some inactives read as strong as hits; reference of the scale not given here;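 same signal on another scale; lower means less binding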
* = called active by the depositor. A portion of the library (hit frequency here may not be typical).

SMILES	CBX7 inh	CBX7 inh z-score
COc1ccc(-c2cc(C(=O)Nc3cnn(Cc4ccc(Cl)cc4Cl)c3)no2)cc1OC	0.958	-0.915
O=C(NCCc1ccccc1)C1CCCN(S(=O)(=O)c2cnc[nH]2)C1 (configuration not stated)	1.02	0.726
CCN(CC)CCN1C(=O)c2ccccc2C1C(=O)NC1CCCCCC1 (configuration not stated)	0.892	-2.15
Cc1ccc(NC(=O)C(NS(=O)(=O)c2ccc3c(c2)CCC(=O)N3)c2ccccc2)cc1 (configuration not stated)	1.06	2.27
COc1cccc(-c2nn(C)c3sc(C(=O)NCCN4CCN(Cc5ccccc5)CC4)cc23)c1	0.886	-3.18
Cc1ccc2c(c1)-c1c(cnn1CC(=O)NCc1ccccc1Cl)CO2	0.894	-2
CCCn1c(=N)n(CCOc2ccc(Br)cc2)c2ccccc21	0.985	-0.277
O=C(Nc1ccc(F)cc1)C1(NS(=O)(=O)c2cccc3cccnc23)CCCCC1	1	0.0206
Cc1cc(C)c(C(=O)c2ccc(-c3nnc(-c4ccccc4)o3)cc2)c(C)c1	0.809	-4.77
O=S(=O)(Nc1cccc(Cl)c1)c1cccnc1	1.05	0.567
O=C(NCc1cccnc1)c1cc(=O)[nH]c2ccc(S(=O)(=O)N3CCCCCC3)cc12	1.07	0.97
Cc1ccc(-c2nc(CS(=O)(=O)CC(=O)N(C)Cc3ccccc3)c(C)o2)cc1	0.981	-0.0393
Cc1ccc(-c2nc(S(=O)(=O)c3ccc(C)cc3)c(NCc3ccco3)o2)cc1	0.807	-0.837
O=C(NCCCN1CCC(Cc2ccccc2)CC1)c1cnn(-c2ccccc2)c1-n1cccc1	0.983	-0.67
O=C(CN1CC(c2ccccc2)CC1=O)N1CCN(c2cccc(Cl)c2)CC1 (configuration not stated)	1	-0.000446
CCOc1ccc(C(=O)Nc2cccc(C(=O)Nc3cccc4ccccc34)c2)cc1Br	0.817	-1.89
CCOC(=O)N1CCC(Nc2c(NCCc3ccc(OC)c(OC)c3)c(=O)c2=O)CC1	1.03	0.58
COc1cc(OC)cc(-c2nnc(NC(=O)c3ccc(S(=O)(=O)N4CCCCCC4)cc3)o2)c1	0.798	-1.96
O=S(=O)(c1ccc(-c2csc(-c3cccnc3)n2)cc1)N1CCOCC1	0.949	-1.01
Cc1ccc(-c2csc3ncn(Cc4ccc(C(C)(C)C)cc4)c(=O)c23)cc1	1.05	0.0486
Cc1cc(C)cc(N2C(=O)C(N3C(=O)c4ccccc4C3=O)C2c2ccc(F)cc2)c1 (configuration not stated)	1.05	1.03
COc1ccc(-n2nnc3c(=O)n(CC(=O)Nc4ccc(Br)cc4)cnc32)cc1	0.934	-1.27
CNC(=O)CSCc1cnn(-c2ccccc2)c1-n1cccc1	0.975	-1.14
COc1ccccc1N1CCN(CC(O)COc2ccc(C)cc2C(C)(C)C)CC1 (configuration not stated)	0.962	-0.881
O=C(Nc1ncc(Cc2ccccc2Cl)s1)C(c1ccccc1)c1ccccc1	0.84	-2.31

More compounds follow:
SMILES	CBX7 inh	CBX7 inh z-score
Cc1cc(C)n2c(Nc3c(C)cccc3C)c(-c3cccs3)nc2n1	1.01	0.0827
O=C(Nc1ccccc1F)c1cnc2ccccn2c1=O	1	0.0595
O=C(c1cccc(C#Cc2ccccc2)c1)N1CCN(c2ccccn2)CC1	0.594	-4.49
N#Cc1ccc(-c2csc(NC(=O)c3cccc(Oc4ccccc4)c3)n2)cc1	0.999	-0.0304
COc1ccc(NC(=O)CC2C(=O)N(c3ccc(F)cc3)C(=O)N2Cc2ccc(F)cc2)cc1 (configuration not stated)	1.01	0.206
CCc1ccc(N(CC(=O)Nc2nc3ccc(C)cc3s2)S(=O)(=O)c2c(C)noc2C)cc1	1.03	0.465
CCOc1ccc(S(=O)(=O)Nc2cc(Br)c3oc4c(c3c2)C(=O)CCC4)cc1	0.966	-0.917
Cc1ccccc1CN1C(=O)c2ccccc2Sc2ccc(C(=O)NCCN3CCOCC3)cc21	0.936	-1.21
Cc1sc2nc(Cc3ccccc3)nc(Nc3cccc(Cl)c3C)c2c1C	1.13	0.129
Cc1c(C)n(Cc2ccccc2)c2ccc(C(=O)O)cc12	1.05	1.32
CS(=O)(=O)c1ccc2nc(NC(=O)COc3ccc(Cl)cc3)sc2c1	0.936	-0.734
COc1ccc(-n2c(/C=C/c3ccc(O)cc3)nc(=O)c(-c3ccccc3)c2C)cc1	1.04	0.0505
CCCCNC(=O)CSc1nc(NCCc2ccc(OC)c(OC)c2)c2ccccc2n1	1	0.114
Cc1cc(OCC(=O)Nc2nc(-c3ccccc3)cs2)ccc1Cl	1.06	0.175
CCc1cccc(C)c1NC(=O)C(C)N1C(=O)c2ccccc2C1=O (configuration not stated)	1.03	1.22
O=C(CSc1ncnn1CC(=O)c1ccc(Br)cc1)c1ccc(Br)cc1	0.935	-0.896
CC(CCc1ccccc1)NC(=O)Cn1c2c(c(-c3ccccc3Cl)cc1=O)CCC2 (configuration not stated)	1.05	0.589
CCCN(CCC)CCCNS(=O)(=O)c1ccc2c(c1)CCN2C(=O)CC	1.13	2.47
Cc1ccc(-c2noc(CCC(=O)N(C)c3ccc(Br)cc3)n2)cc1	1.04	1.33
Cc1ccc2c(c1)NC(=O)C(CC(=O)NCC(C)c1ccccc1)O2 (configuration not stated)	0.986	-0.569
COc1ccc(OC)c(CNc2cc(C)nc3nc(C)nn23)c1	1.04	1.27
CC1CCC(NC(=O)C2c3ccccc3C(=O)N2CCCN2CCOCC2)CC1 (configuration not stated)	1.11	0.392
O=C(CN1CCN(Cc2ccccc2F)C1=O)NC1CCCCCCC1	0.96	-0.857
CCOC(CCNC(=O)c1cn(CC)c(=O)c2cc(OC)c(OC)cc12)OCC	1.17	1.53
CC(C)(C)c1ccc(-c2nc(Cc3ccc(Cl)cc3)no2)cc1	1.97	6.95

(continued)
SMILES	CBX7 inh	CBX7 inh z-score
Cc1cc(C(F)(F)F)nn1-c1nc(-c2ccccc2)cc(C(F)(F)F)n1	1.16	3.53
COc1ccc(-c2noc(CCC(=O)NCCCN3CCN(C)CC3)n2)cc1	0.999	-0.0288
CCCCN(CC)CCCNC(=O)Cn1ncc2c1-c1cc(C)ccc1OC2	1.13	2.29
O=C(Cn1cnc2c(nnn2Cc2ccc(F)cc2)c1=O)NC1CCCC1	0.835	-2.71
Nn1cnn2c(SCC(=O)Nc3cc(Cl)cc(Cl)c3)nnc12	1.02	0.798
Cc1ccc(CNC(=O)C2C3C=CC4(CN(Cc5ccccc5Cl)C(=O)C24)O3)cc1 (configuration not stated)	1	0.127
Clc1ccc2nc3c(c(Nc4ccc5c(c4)OCCO5)c2c1)CCCC3	0.798	-0.275
CCOc1ccc2nc(N3CCC(C(=O)NC(C)CCc4ccccc4)CC3)sc2c1 (configuration not stated)	1	0.00118
CCOC(=O)c1ccc(NC(=O)c2ccc3c(c2)NC(=O)c2ccccc2S3)cc1	1.04	1.1
O=C(COc1ccc2ccccc2c1)Nc1ccc(-c2nc3ccccc3s2)cc1	1.3	2.54
CCc1ccccc1NC(=O)C(NS(=O)(=O)c1ccc2nc(C)sc2c1)C(C)C (configuration not stated)	0.989	-0.198
COc1ccc(C(=O)Nc2nc(-c3ccc(-c4ccccc4)cc3)cs2)c(OC)c1	1.14	2.05
Cc1c(C(=O)NC2CCCCC2)oc2ccc(S(=O)(=O)N(C)C3CCCCC3)cc12	1.01	0.0798
Cc1ccccc1NS(=O)(=O)c1ccc2c(c1)CCN2C(=O)C1CC1	0.992	-0.262
Cc1cc2ncn(CC(O)COc3cccc(C(=O)O)c3)c2cc1C (configuration not stated)	1.06	0.967
COc1ccc(-c2nc3ncccn3c2Nc2ccc(F)cc2)cc1	0.997	-0.0677
O=C(NCc1ccc(F)cc1)C1CCCN(c2nnc(-n3cccc3)s2)C1 (configuration not stated)	0.622	-8.26
CCCN1CCN(C(=O)CS(=O)(=O)Cc2nc(-c3cccc(OC)c3)oc2C)CC1	1.03	1.34
O=C(Cn1c(-c2ccccn2)nc2ccccc21)NCCCN1CCOCC1	1	-0.0105
COc1ccc2c(c1)c(=O)c(S(=O)(=O)c1ccc(C)cc1)cn2CC(=O)Nc1ccc(Cl)cc1	1	-0.00554
Cc1cccc(N2CC(c3nc4ccccc4n3CCC(C)C)CC2=O)c1C (configuration not stated)	0.958	-0.263
CC(C)(C)c1nnc(Nc2cccc(F)c2)[nH]c1=O	1.34	0.684
COc1ccc(-c2cc(C(=O)Nc3ccc(Br)cc3)c3ccccc3n2)cc1	0.974	-0.103
CC1CCN(c2c(NCc3ccc(C(=O)NCCN4CCCCCC4)cc3)c(=O)c2=O)CC1	1.06	2.5
Cc1ccc(C2CC(C(F)(F)F)n3nc(C(=O)N4CCN(c5ccccc5)CC4)cc3N2)cc1 (configuration not stated)	0.875	-2.13

(more compounds)
SMILES	CBX7 inh	CBX7 inh z-score
CCC1CCCCN1C(=O)c1cn(-c2ccc(F)cc2F)c(=O)c2ccccc12 (configuration not stated)	1.03	0.461
COc1ccc(NC(=O)c2cc(C(C)C)on2)cc1OC	1	0.0224
O=C(Nc1ccc(Cc2ccncc2)cc1)Nc1ccc(Cl)c(Cl)c1	1.02	0.497
COc1ccccc1-c1c(C)nn2c(N3CCN(c4ccccc4OC)CC3)cc(C)nc12	1.11	1.45
COc1ccc2nc(N3CCCC(C(=O)NC(C)CCc4ccccc4)C3)sc2c1 (configuration not stated)	0.924	-1.29
Cc1cccc(NC(=O)c2sc3ncn(CC(=O)N4CCOCC4)c(=O)c3c2C)c1	1.08	0.519
Cc1ccc(CNC(=O)c2cc(=O)[nH]c3ccc(S(=O)(=O)N4CCOCC4)cc23)cc1	0.991	-0.103
O=C(Nc1ccc(O)cc1)c1ccc2c(c1)C(=O)N(c1nccs1)C2=O	0.908	-1.41
CCN(CCCNC(=O)c1cc(-c2cccnc2)nc2ccccc12)c1cccc(C)c1	1.13	0.967
CCOC(=O)c1cnc2ccc(Cl)cc2c1Nc1ccc(OCC)cc1	0.953	-1.31
CC1CCC(NC(=O)C2CCCN2S(=O)(=O)c2ccc3c(c2)n(C)c(=O)c(=O)n3C)CC1 (configuration not stated)	1.05	0.0606
COc1ccc(C(=O)Nc2nc3ccccc3n2CCOc2ccccc2Cl)cc1	0.892	-3.03
COc1ccc(Nc2c(-c3ccsc3)nc3cnccn23)cc1OC	0.952	-1.91
CC(=O)N1CCc2cc(S(=O)(=O)NC(CC(C)C)C(=O)Nc3cccc(C(F)(F)F)c3)ccc21 (configuration not stated)	1.04	1.85
COc1ccc(-c2cc(C(=O)Nc3cnn(Cc4ccccc4C)c3)no2)cc1OC	1.02	0.435
CCCNC(=O)c1nc(-c2ccc(C)cc2)oc1C	1.12	2.01
O=C(CN1CCN(c2ccc(F)cc2)CC1)N1c2ccccc2CCc2ccccc21	0.523	-0.474
Cc1ccc(NC(=O)CSCc2cnn(-c3ccccc3)c2-n2cccc2)cc1C	1.05	2.42
CCNc1oc(COc2ccc(F)cc2)nc1C#N	0.793	-2.23
COc1ccc(C(=O)Nc2ccc(-c3nc4ncccc4o3)cc2)cc1	0.94	-0.681
Cn1c(C(=O)O)c(CC(=O)N2CCCCCC2)c2ccccc21	0.953	-0.0464
Cc1ccc2c(Cl)c(-c3nnc(-c4ccc(C(C)C)cc4)o3)sc2c1	1.06	2.61
Cc1nc(N2CCN(c3ccc(Cl)c(Cl)c3)CC2)c2c3c(sc2n1)CCCC3	1.12	3.47
O=C(Nc1nccs1)C1CC(=O)N(c2ccccc2)C1 (configuration not stated)	0.955	-1.25
CC(=O)Nc1ccc(NS(=O)(=O)c2cc(Br)cc3c2N(C(C)=O)CC3)cc1	1.04	0.785

Additional entries.
SMILES	CBX7 inh	CBX7 inh z-score
CCc1cccc(NC(=O)C(Cc2ccccc2)NS(=O)(=O)c2ccc3c(c2)CCC(=O)N3)c1 (configuration not stated)	0.923	-0.498
Cc1ccc(CNC(=O)c2ccc3c(=O)n4c(nc3c2)CCCCC4)cc1	0.822	-2.92
CC(C)OCCCNC(=O)CN1C(=O)CC(C)(C)S(=O)(=O)c2ccccc21	1.02	0.643
CCCCOc1nnc(-c2ccc(C)cc2)c2ccccc12	1.12	0.46
COc1ccc(C(=O)NCCc2cc3ccc(C)c(C)c3[nH]c2=O)cc1OC	1.16	1.04
COc1ccc(Cl)cc1N(C)C(=O)Cn1nc(Cc2ccncc2)c2ccccc2c1=O	0.959	-1.21
Cc1ccc(N(CC(=O)Nc2cccc(Cl)c2C)S(=O)(=O)c2c(C)noc2C)cc1	0.908	-0.768

Among those listed so far, these contain fluorine.
SMILES	CBX7 inh	CBX7 inh z-score
O=C(Nc1ccc(F)cc1)C1(NS(=O)(=O)c2cccc3cccnc23)CCCCC1	1	0.0206
Cc1cc(C)cc(N2C(=O)C(N3C(=O)c4ccccc4C3=O)C2c2ccc(F)cc2)c1 (configuration not stated)	1.05	1.03
O=C(Nc1ccccc1F)c1cnc2ccccn2c1=O	1	0.0595
COc1ccc(NC(=O)CC2C(=O)N(c3ccc(F)cc3)C(=O)N2Cc2ccc(F)cc2)cc1 (configuration not stated)	1.01	0.206
O=C(CN1CCN(Cc2ccccc2F)C1=O)NC1CCCCCCC1	0.96	-0.857
Cc1cc(C(F)(F)F)nn1-c1nc(-c2ccccc2)cc(C(F)(F)F)n1	1.16	3.53
O=C(Cn1cnc2c(nnn2Cc2ccc(F)cc2)c1=O)NC1CCCC1	0.835	-2.71
COc1ccc(-c2nc3ncccn3c2Nc2ccc(F)cc2)cc1	0.997	-0.0677
O=C(NCc1ccc(F)cc1)C1CCCN(c2nnc(-n3cccc3)s2)C1 (configuration not stated)	0.622	-8.26
CC(C)(C)c1nnc(Nc2cccc(F)c2)[nH]c1=O	1.34	0.684
Cc1ccc(C2CC(C(F)(F)F)n3nc(C(=O)N4CCN(c5ccccc5)CC4)cc3N2)cc1 (configuration not stated)	0.875	-2.13
CCC1CCCCN1C(=O)c1cn(-c2ccc(F)cc2F)c(=O)c2ccccc12 (configuration not stated)	1.03	0.461
CC(=O)N1CCc2cc(S(=O)(=O)NC(CC(C)C)C(=O)Nc3cccc(C(F)(F)F)c3)ccc21 (configuration not stated)	1.04	1.85
O=C(CN1CCN(c2ccc(F)cc2)CC1)N1c2ccccc2CCc2ccccc21	0.523	-0.474
CCNc1oc(COc2ccc(F)cc2)nc1C#N	0.793	-2.23
